Compound activity deposited in PubChem by National Center for Advancing Translational Sciences (NCATS).
Rango dissoc inh: qHTS Assay for Inhibitors of RanGTP induced Rango (Ran-regulated importin-beta cargo) - Importin beta complex dissociation. Snurportin-1 (Homo sapiens) + GTP-binding nuclear protein Ran (Homo sapiens) + Importin …. Biochemical FRET Rango-importin beta, RanGTP-induced dissociation. Potency, µM (highest dose often 46.1 µM), for inactives: at the top dose activity change, negative = inhibition. actives 0.071% (n = 340,000). AID 540253, 2011; active means falling FRET ratio curve, often poorly fitted, with flat reads before Ran was added; inconclusive means other falling curves, or compound fluorescence or quenching; inactive means flat or rising ratio curve;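 also: potency is read from the fitted curve at half-maximal effect; % of control where 0% means no effect; nearly all actives have a fitted effect of over 45% in size; -100% = wells without RanGTP and RCC1; the record marks most hits as doubtful in a second field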
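Rango (0.1 uM)–importin beta (0.25 uM) complex; RanGTP-RCC1 trigger; 45 min RT; CFP/YFP FRET read.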
Rango-impB inh: qHTS Assay for Inhibitors of Rango (Ran-regulated importin-beta cargo) - Importin beta complex formation | Rango CFP/YFP FRET sensor + importin beta, 45 min | Potency, µM (doses to about 92.2 µM), for inactives: at the top dose inhibition of complex formation | actives 0.031% (n = 340,000) | AID 540263, 2011; active = rising FRET ratio curve, often small or poorly fitted; inconclusive = mostly compound fluorescence or quenching in the first reads; inactive = flat curves in all reads;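 also: potency is read from the fitted curve at half-maximal effect; 0% = DMSO wells and 100% = buffer wells lacking importin beta; nearly all actives have a fitted effect of over 15% in size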
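FRET biosensor (snurportin 1 IBB flanked by EYFP and cerulean), 50 nM, with compound 5 min, then 0.125 microM importin beta in PBS, 1 mM DTT, 0.02% Tween-20, 0.1% BSA. CFP/YFP ratio read after 45 min at room temperature; pre-read flags interference.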
miR-21 reporter: qHTS Assay for Modulators of miRNAs and/orActivators of miR-21; Potency, µM (top dose mostly 38.3 µM), for the others: at the top dose reporter change, positive = more light; 340,000 tested, under 10 active; HeLa miR-21 FLuc reporter, luciferase, 48 h; AID 2288, 2010; active = well fitted rising curve with a large enough effect; inconclusive = small, poorly fitted or top-dose-only effect; inactive = no such curve, though single readings can be large or run the other way;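 also: % of control where 0% means no effect; miR-21 action dims this reporter so a rising signal means less miR-21 action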
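Luminescence from a firefly luciferase reporter carrying a miR-21 binding site downstream, stably expressed under a CMV promoter in HeLa cells that make miR-21 endogenously, reports miRNA modulation after 48 h compound exposure up to approximately 40uM final.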
GLA inh pH 4.5: qHTS Assay for Inhibitors of Human alpha-Galactosidase at pH 4.5; 230,000 tested, under 10 active; Alpha-galactosidase A (Homo sapiens), P06280; activity change, negative = inhibition, % at 105 µM; AID 1467, 2008; purified enzyme, 4-MU-alpha-Gal fluorescence, pH 4.5; inconclusive = small, poorly fitted or top-dose-only inhibition, or a rising curve; inactive = flat fitted curve, though single readings scatter; no compound was filed as active;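 also: 0% = full activity with enzyme and -100% = basal without enzyme; dose as in the result columns while the protocol names 77 µM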
Target sequence (P06280 whole entry, looked up): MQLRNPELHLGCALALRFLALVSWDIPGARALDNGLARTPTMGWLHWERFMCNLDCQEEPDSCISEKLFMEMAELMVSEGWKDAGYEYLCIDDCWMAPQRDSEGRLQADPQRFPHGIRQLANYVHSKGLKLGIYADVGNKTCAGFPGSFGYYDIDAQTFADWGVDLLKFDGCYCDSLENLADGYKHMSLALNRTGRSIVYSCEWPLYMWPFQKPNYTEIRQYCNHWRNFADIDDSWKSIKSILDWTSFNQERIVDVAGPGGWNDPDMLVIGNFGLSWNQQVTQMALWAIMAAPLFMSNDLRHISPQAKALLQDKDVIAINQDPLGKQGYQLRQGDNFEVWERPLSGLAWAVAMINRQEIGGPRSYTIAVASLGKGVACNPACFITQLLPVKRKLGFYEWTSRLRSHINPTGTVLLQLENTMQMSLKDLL
The depositor's hits bear a star; ? = inconclusive; · = not tested or not shown.

mol	GLA inh pH 4.5	Rango-impB inh	miR-21 reporter	Rango dissoc inh
COC(=O)c1cc(NS(=O)(=O)c2ccc(N3CCCCC3)c([N+](=O)[O-])c2)cc(C(=O)OC)c1	3	-1.6%	-6%	-7%
O=C(COC(=O)c1ccc(=O)[nH]c1)Nc1cccc(S(=O)(=O)N2CCOCC2)c1	-4	-0.4%	6%	21%
CCS(=O)(=O)N1CCN(Cc2ccncc2)CC1	0	-2.8%	0%	-9%
Cc1cccc(C)c1Nc1c(-c2ccc(N3CCOCC3)cc2)nc2cnccn12	-7	?	-18%	?
O=C(CC1SC(=O)N(c2ccccc2)C1=O)Nc1ccc(Cl)cc1 (centres undefined)	-3	4.2%	-36%	1%
CCOc1cc(C(=O)OCC(=O)Nc2c(C)cccc2C)ccc1OCC(=O)N1CCOCC1	2	1.3%	-1%	33%
COC(=O)[C@]1(C)N[C@H](CN(C)C(=O)Nc2ccc(OC)cc2)[C@@H]2C(=O)N(C)C(=O)[C@@H]21	·	1.8%	·	3%
Cc1c(C(=O)OC(C)C(C)C[N+](C)(C)C)oc2ccccc12 (centres undefined)	-2	4.1%	-1%	1%
O=C(O)CSc1nc2ccccc2c(=O)[nH]1	2	0.2%	-8%	0%
Cc1ccccc1Cn1cc(NC(=O)c2cc3nc(-c4ccco4)cc(C(F)(F)F)n3n2)cn1	-6	?	-7%	?

Some of the entries above in a different format:
CCOc1cc(C(=O)OCC(=O)Nc2c(C)cccc2C)ccc1OCC(=O)N1CCOCC1
  GLA inh pH 4.5: 2
  Rango-impB inh: 1.3%
  miR-21 reporter: -1%
  Rango dissoc inh: 33%

COC(=O)[C@]1(C)N[C@H](CN(C)C(=O)Nc2ccc(OC)cc2)[C@@H]2C(=O)N(C)C(=O)[C@@H]21
  GLA inh pH 4.5: ·
  Rango-impB inh: 1.8%
  miR-21 reporter: ·
  Rango dissoc inh: 3%

Cc1c(C(=O)OC(C)C(C)C[N+](C)(C)C)oc2ccccc12 (centres undefined)
  GLA inh pH 4.5: -2
  Rango-impB inh: 4.1%
  miR-21 reporter: -1%
  Rango dissoc inh: 1%

Going on with the list:
mol	GLA inh pH 4.5	Rango-impB inh	miR-21 reporter	Rango dissoc inh
Clc1cccc(CSc2ccc(-c3ccco3)nn2)c1	-13	2.0%	-38%	0%
CCCc1cc(-c2nc(N)ncc2-c2ccc3c(c2)OCCCO3)c(O)cc1OC	?	-0.5%	9%	-1%
N#Cc1ccc(C(=O)Nc2nnc(-c3ccccn3)o2)cc1	-4	-1.5%	-23%	4%
Cc1ccccc1C(=O)Nc1nnc(-c2ccco2)o1	4	-0.7%	-49%	2%
CCOc1ccc(NC(=O)CN(C)C(=O)c2cc([N+](=O)[O-])ccc2N2CCCCC2)cc1OCC	·	0.6%	·	0%

Just miR-21 reporter, GLA inh pH 4.5 and Rango dissoc inh, for some of the entries so far:
Compound	miR-21 reporter	GLA inh pH 4.5	Rango dissoc inh
CCCc1cc(-c2nc(N)ncc2-c2ccc3c(c2)OCCCO3)c(O)cc1OC	9%	?	-1%
N#Cc1ccc(C(=O)Nc2nnc(-c3ccccn3)o2)cc1	-23%	-4	4%

The list is partial; count on the stated rates, not on these rows.
